# High-throughput results from PubChem.
# Polio RdRp inh = poliovirus RdRp elongation inhibitors, primary screen, biochemical, fluorescence polarization, total intensity | poliovirus polymerase elongation; stronger effect = lower value | % elongation, % (compound at 16.7 µg/mL) | 150,000 tested, 0.66% active; in the data active = % elongation below about 90%; also: some results filed as inactive read as strong as hits
# Target sequence (P03300 1749-2209 limits assumed): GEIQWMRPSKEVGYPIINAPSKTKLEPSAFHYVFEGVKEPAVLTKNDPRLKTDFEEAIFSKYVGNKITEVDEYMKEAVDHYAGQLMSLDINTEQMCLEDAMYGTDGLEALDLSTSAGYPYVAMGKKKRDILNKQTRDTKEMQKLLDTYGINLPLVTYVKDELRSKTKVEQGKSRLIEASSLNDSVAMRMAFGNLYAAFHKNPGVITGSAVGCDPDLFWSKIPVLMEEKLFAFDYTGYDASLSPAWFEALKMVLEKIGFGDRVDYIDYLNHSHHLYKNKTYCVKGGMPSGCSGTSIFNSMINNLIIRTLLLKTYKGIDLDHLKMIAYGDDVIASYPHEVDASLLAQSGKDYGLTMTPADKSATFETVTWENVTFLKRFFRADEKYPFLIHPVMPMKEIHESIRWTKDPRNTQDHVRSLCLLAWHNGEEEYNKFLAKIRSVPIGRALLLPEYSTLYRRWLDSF
# Mtb MbtI inh = MbtI salicylate synthase inhibitors, primary screen, biochemical, fluorescence intensity; purified MbtI enzyme, fluorescence intensity read-out; AID 493033, 2011; P9WFX0; 100,000 tested, 0.89% active; inhibition, %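 (about 17 µg/mL by stock and volumes)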;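 active = above 50% in both replicates, above 80% if mildly self-fluorescent; inactive = the rest, strongly fluorescent compounds included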;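 also: 0% = mean of negative and 100% = mean of positive controls; one replicate is shown; some compounds called inactive have numbers as strong as hits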
# Mtb MenB inh = M. tuberculosis MenB inhibitors, primary screen, biochemical, absorbance. 1,4-dihydroxy-2-naphthoyl-CoA synthase (Mycobacterium tuberculosis (strain ATCC 25618 / …. MenB enzyme assay, absorbance read-out; some hits fall short of the stated cut. inhibition, %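 (about 12 µg/mL by stock and volumes)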. 100,000 tested, 0.43% active. AID 540299, 2011;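 active = mean of two replicates above 30%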;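 also: 0% = no compound and 100% = wells with inactive enzyme; the first replicate is given; strong numbers were not always called active; inactives centre near -10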
# Target sequence (P9WNP5 whole entry, looked up): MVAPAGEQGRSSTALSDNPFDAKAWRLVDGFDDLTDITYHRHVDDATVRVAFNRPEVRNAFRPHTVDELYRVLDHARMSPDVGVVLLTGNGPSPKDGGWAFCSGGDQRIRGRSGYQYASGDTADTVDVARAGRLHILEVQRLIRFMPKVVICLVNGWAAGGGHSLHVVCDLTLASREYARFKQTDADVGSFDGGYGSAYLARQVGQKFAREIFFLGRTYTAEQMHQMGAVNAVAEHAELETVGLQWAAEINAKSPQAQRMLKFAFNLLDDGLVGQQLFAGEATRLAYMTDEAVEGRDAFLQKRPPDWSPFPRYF
# Polio RdRp inh intensity = recorded beside Polio RdRp inh, whose call it bears; % elongation; measured here: total intensity read-out; formula for this scale not given here;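 total fluorescence in place of polarization; lower means less elongation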
# An asterisk follows results filed as active; · = no result given; & = joins results of further samples.
SMILES,Polio RdRp inh,Polio RdRp inh intensity,Mtb MbtI inh,Mtb MenB inh
O=C(NC(=S)Nc1ccc(-c2nc3ccccc3o2)cc1)c1cc2ccccc2o1,99,104,2,-11
CCCC(=O)Nc1ccc2c(c1)COC2=O,106,100,·,5
Cc1ccccc1CNC(=O)c1oc2ccc3c(c2c1C)C(O)CC(C)(C)O3 (configuration not stated),105,100,132,-27
COc1cccn(CC(=O)NN)c1=O,104,110,-3,5
CC1CN(C(=O)Cc2csc3nc(-c4ccc(Cl)cc4)cn23)CC(C)O1 (configuration not stated),100,107,-7,4
CCc1ccc(OCCNC(=O)c2ccco2)cc1,103,107,·,-5
O=S1(=O)CC(O)C(S(=O)(=O)c2ccccc2)C1 (configuration not stated),99,101,-1,-26
CC(=O)N1c2ccc(S(=O)(=O)N3CCCC3)cc2CC1C(=O)N1CCN(Cc2ccccc2)CC1 (configuration not stated),100,102,-25,-9
Cc1nn(-c2ccccc2)c2sc(C(=O)NCCCn3ccnc3)cc12,99,101,-3,·
S=C(S)N1CCCCC1c1cccnc1 (configuration not stated),106,111,·,-23
O=C(Cn1c(=O)oc2cc(S(=O)(=O)NC3CCCCC3)ccc21)N1CCCCCC1,103,106,1,-8
O=C(NCc1ccco1)c1cn(-c2ccccc2)nc1-c1cccnc1,103,103,-10,·
COc1ccc(C(=O)C(C)OC(=O)Cn2c(CS(C)(=O)=O)nc3ccccc32)cc1 (configuration not stated),100,103,5,7
Cc1ccc(CC(=O)N2CCOCC2)cc1,102,96,·,-17
CCN(C(=O)CSc1cccc[n+]1[O-])c1ccccc1,104,106,-3,·
O=C(CSc1nnnn1-c1ccccc1)NC(C(=O)O)(c1ccccc1)c1ccccc1,98,101,·,5
O=c1/c(=C/c2ccc(N3CCOCC3)cc2)sc2nc3ccccc3n12,114,122,·,2
Cc1ccc(P(/C=C2\N(C)c3ccccc3C2(C)C)(=Nc2ccc(S(N)(=O)=O)cc2)N2CCOCC2)o1 (configuration not stated),102,106,10,-23
COCc1c(C(=O)OCC(=O)N2c3ccccc3CC2C)oc2ccccc12 (configuration not stated),103,108,1,-13
CC1CC(C)CN(C(=O)c2ccc3c(c2)N(C)C(=O)/C(=C/c2cccc(Cl)c2)S3)C1 (configuration not stated),102,104,6,-7
O=C(NCCCN1CCc2ccccc2C1)Nc1ccc(Cl)cc1,103,100,1,-13
Cc1ccc(-c2cc(NC(=O)CNC(C)c3ccc(F)cc3F)on2)cc1 (configuration not stated),101,104,-1,-24
O=C(Nc1nc2ccc(Cl)cc2s1)C1CN(C(c2ccccc2)c2ccccc2)C1,102,109,-9,-2
CCCSc1nc2ccc(S(=O)(=O)N3CCOCC3)cc2[nH]1,64*,72*,93*,-20

# Next part (four carried over from the part before).
SMILES,Polio RdRp inh,Polio RdRp inh intensity,Mtb MbtI inh,Mtb MenB inh
O=C(NCCCN1CCc2ccccc2C1)Nc1ccc(Cl)cc1,103,100,1,-13
Cc1ccc(-c2cc(NC(=O)CNC(C)c3ccc(F)cc3F)on2)cc1 (configuration not stated),101,104,-1,-24
O=C(Nc1nc2ccc(Cl)cc2s1)C1CN(C(c2ccccc2)c2ccccc2)C1,102,109,-9,-2
CCCSc1nc2ccc(S(=O)(=O)N3CCOCC3)cc2[nH]1,64*,72*,93*,-20
CCOC(=O)COc1c(Cl)cc(/C=C2/NC(=O)NC2=O)cc1OC,104,104,-1,17
CCCCn1c(=N)n(CCOc2ccccc2)c2ccccc21,100,99,-3,-10
CC1CC(C)CN(S(=O)(=O)c2ccc(N)cc2)C1 (configuration not stated),104,98,1,·
CN(C)c1nc(Oc2ccc(=O)n(C)n2)nc(N2CCCCC2)n1,101,101,-6,-5
O=C(c1ccccc1)N1CN(C(=O)c2ccccc2)CN(C(=O)c2ccccc2)C1,105,108,3,-1
O=C(O)Cc1ccc(C(F)(F)F)cc1,105,100,-6,5
O=C(O)CCC(=O)Nc1ccc(-c2ccccc2)cc1,104,102,1,-10
CCN1C(=O)C2(c3ccccc31)c1c(oc3ccccc3c1=O)C(=O)N2CCO (configuration not stated),103,106,6,-14
O=C(O)c1ccc2nc(CCc3nc4ccc(C(=O)O)cc4[nH]3)[nH]c2c1,102,105,26,-12
COCCN=c1scc(-c2ccc(OC(F)F)cc2)n1/N=C/c1ccc[nH]1,103,110,-12,-61
COC(=O)c1ccc2c(c1)C(=O)/C(=C/c1cn(-c3ccccc3)nc1-c1ccco1)O2,109,130,91,2
CN1N=C(C(C)(C)C)CSC1=Nc1ccccc1,97,105,-3,0
CC(C)c1ccc(CNc2nc(N)n(-c3ccccc3)n2)cc1,100,100,-3,-4
O=c1[nH]c2ccc(Cl)cc2c2oc(-c3ccccc3)nc12,104,105,-9,-3
N#CC(C#N)c1nc2cc3c(cc2nc1Cl)OCCO3,45,242,-8,-65
CCO/C=C1\C(=O)N(C)C(=O)c2ccccc21,10*,23*,-10,·
O=C(Cc1cn2ccsc2n1)N/N=C1\CCCCc2ccccc21,106,108,-5,-2
CC(C)N1C(=O)S/C(=C/c2ccccc2OCc2ccc(C(=O)O)cc2)C1=O,101,104,0,-8
NS(=O)(=O)c1ccc(CNS(=O)(=O)Cc2ccccc2)cc1,102,101,6,-22
C=CCN1C(=O)/C(=C\c2ccc(OCC(=O)O)c(OC)c2)SC1=S,107,106,10,-176
CCN(C(=O)CN1CCCCC1)c1nc2ccc(C)cc2s1,·,·,-21,-8
CCCCN1C(=O)C(O)(c2c(C)nn(CCC#N)c2N)c2ccccc21 (configuration not stated),106,99,-1,5
O=C(CCn1c(=S)[nH]c2c(sc3ccccc32)c1=O)NC1CCCCC1,101,102,16,-28
O=C(Oc1ccc2c(c1)OCO2)c1ccc2c(c1)OCCO2,102,97,-4,-15

# Shown with tabs: part of the list above.
SMILES	Polio RdRp inh	Polio RdRp inh intensity	Mtb MbtI inh	Mtb MenB inh
COCc1c(C(=O)OCC(=O)N2c3ccccc3CC2C)oc2ccccc12 (configuration not stated)	103	108	1	-13
CC1CC(C)CN(C(=O)c2ccc3c(c2)N(C)C(=O)/C(=C/c2cccc(Cl)c2)S3)C1 (configuration not stated)	102	104	6	-7
O=C(NCCCN1CCc2ccccc2C1)Nc1ccc(Cl)cc1	103	100	1	-13
Cc1ccc(-c2cc(NC(=O)CNC(C)c3ccc(F)cc3F)on2)cc1 (configuration not stated)	101	104	-1	-24
O=C(Nc1nc2ccc(Cl)cc2s1)C1CN(C(c2ccccc2)c2ccccc2)C1	102	109	-9	-2
CCCSc1nc2ccc(S(=O)(=O)N3CCOCC3)cc2[nH]1	64*	72*	93*	-20
CCOC(=O)COc1c(Cl)cc(/C=C2/NC(=O)NC2=O)cc1OC	104	104	-1	17
CCCCn1c(=N)n(CCOc2ccccc2)c2ccccc21	100	99	-3	-10
CC1CC(C)CN(S(=O)(=O)c2ccc(N)cc2)C1 (configuration not stated)	104	98	1	·
CN(C)c1nc(Oc2ccc(=O)n(C)n2)nc(N2CCCCC2)n1	101	101	-6	-5
O=C(c1ccccc1)N1CN(C(=O)c2ccccc2)CN(C(=O)c2ccccc2)C1	105	108	3	-1
O=C(O)Cc1ccc(C(F)(F)F)cc1	105	100	-6	5
O=C(O)CCC(=O)Nc1ccc(-c2ccccc2)cc1	104	102	1	-10
CCN1C(=O)C2(c3ccccc31)c1c(oc3ccccc3c1=O)C(=O)N2CCO (configuration not stated)	103	106	6	-14
O=C(O)c1ccc2nc(CCc3nc4ccc(C(=O)O)cc4[nH]3)[nH]c2c1	102	105	26	-12
COCCN=c1scc(-c2ccc(OC(F)F)cc2)n1/N=C/c1ccc[nH]1	103	110	-12	-61
COC(=O)c1ccc2c(c1)C(=O)/C(=C/c1cn(-c3ccccc3)nc1-c1ccco1)O2	109	130	91	2
CN1N=C(C(C)(C)C)CSC1=Nc1ccccc1	97	105	-3	0
CC(C)c1ccc(CNc2nc(N)n(-c3ccccc3)n2)cc1	100	100	-3	-4
O=c1[nH]c2ccc(Cl)cc2c2oc(-c3ccccc3)nc12	104	105	-9	-3
N#CC(C#N)c1nc2cc3c(cc2nc1Cl)OCCO3	45	242	-8	-65
CCO/C=C1\C(=O)N(C)C(=O)c2ccccc21	10*	23*	-10	·
O=C(Cc1cn2ccsc2n1)N/N=C1\CCCCc2ccccc21	106	108	-5	-2

# Other structures:
SMILES,Polio RdRp inh,Polio RdRp inh intensity,Mtb MbtI inh,Mtb MenB inh
Oc1sc(-c2ccccc2)cc1C=Nc1ccccc1,101,103,11,-24
CNC(=O)CN1C(=O)C2C3C=CC(C3)C2C1=O (configuration not stated),101,105,-1,-1
CCOC(=O)C1=C(N)CC(c2ccccc2)NC1c1ccccc1 (configuration not stated),105,92,·,-16
COc1ccc(OC)c2sc(NC(=O)C3CC3)nc12,100,100,75,-31
COCC(C)N=C1NN=C(c2cc(C)n(Cc3ccccc3Cl)c2C)CS1 (configuration not stated),98,99,-4,-50
Cc1ccc(NC(=O)CC2(C)Nc3ccccc3C(=O)N2c2ccccc2C)c(C)c1 (configuration not stated),98,101,·,-10
NC(=S)Cc1nc2ccccc2s1,113,237,45,-82
Cc1nn(-c2ccccc2)nc1-c1n[nH]c(=S)n1-c1ccc(Cl)cc1,101,94,-2,1
O=C(OCc1cc(Cl)ccc1OC(F)F)c1cccnc1,114,186,3,-11
O=C(O)c1cc(NC(=O)C2CC2)cc(C(=O)O)c1,99,103,-18,-11
COc1ccc([C@@H]2Sc3ccccc3N(CCN(C)C)C(=O)[C@@H]2OC(C)=O)cc1,100&100,103&101,-4&-6,2
CC1(C)Oc2ccc3ccc(=O)oc3c2C(/C=N/O)C1=O (configuration not stated),102,100,103,4
C/C(N)=C(/C#N)C(=O)CSc1nncn1C,106,106,8,-24
CN[C@@H]1C(O)[C@@H](O[C@@H]2[C@@H](O)[C@H](O[C@H]3OC(CN)=CC[C@H]3N)[C@@H](N)C[C@H]2N)OC[C@]1(C)O (some centres not stated),103,98,-15,-7
COc1ccc(C(=O)NCc2ccccc2OC)cc1,101,100,-11,-23
CCOC(=O)C1C(=O)C(C(=O)OCC)C(c2cccnc2)NC1c1cccnc1 (configuration not stated),101,102,-11,1
CC1=CC(=C(C#N)C#N)C=C(C)N1CCc1ccccc1,103,104,58,-1
Cc1noc(C)c1-c1nc(CSc2n[nH]c(=O)n2C2CC2)no1,107,110,-12,16
CCN1C/C(=C/c2ccc(O)cc2)C(=O)/C(=C/c2ccc(O)cc2)C1,102,107,-3,-172
NS(=O)(=O)c1ccc(N2CCN(CCOc3ccc(Cl)cc3)CC2)nc1,99,104,15,-40
CN1CCSc2ccc(C(=O)NC3CCCCC3)cc21,104,99,4,-25
Nc1ccc(S(=O)(=O)NCCO)cc1,101,105,-14,-34
CCN(CC)Cc1cc(O)c(CN(CC)CC)cc1O,98,92,94*,·
N#CCC(c1ccccc1)c1ccc2c(c1)OCO2 (configuration not stated),100,100,-4,17
O=C(NCC1COc2ccccc2O1)c1ncoc1-c1ccc2ccccc2c1 (configuration not stated),102,103,91,-40
OC(CNCc1ccccc1)COCc1ccc(Cl)cc1 (configuration not stated),103,98,0,·
COc1ccc(-c2cc(C(F)(F)F)nc(SCCC(=O)N3CCCC3)n2)cc1,104,106,4,1
CCCSc1nsc(SCCC)c1C(N)=O,101,102,7,-3
CC1CC(C)(C)CC2(C1)NC(=O)N(c1ccccc1)N2 (configuration not stated),103,104,-3,-13
CNCCCc1ccccc1,104,100,-8,-33
COc1ccc(Nc2nc(N)nc(CSC(=S)N3CCOCC3)n2)cc1,103,103,-3,-19
O=C(NCCc1c[nH]c2ccccc12)C1CC(=O)N(Cc2ccco2)C1 (configuration not stated),107,106,0,6
O/N=C1\c2ccccc2-c2c(F)c(F)c(F)c(F)c21,101,104,-15,-11
Cc1ccc(OCc2ccc(C(=O)N3c4ccccc4CC3C)cc2)cc1C (configuration not stated),103,99,21,-4
COc1cc(OCCN2CCOCC2)ccc1C1C(C#N)=C(N)Oc2nc(C(F)(F)F)[nH]c21 (configuration not stated),101,103,·,-6
CCOC(=O)COc1ccc2c(c1)OCO2,102,101,-14,-5
N#C/C(=C\N1CCN(C(c2ccccc2)c2ccccc2)CC1)S(=O)(=O)c1ccccc1,104,109,-7,-12
CCC(=O)Nc1ccccc1C(=O)OCC(=O)Nc1nc2ccc(C(=O)OC)cc2s1,102,117,·,2
CCCN1CCN(c2nc(-c3cccs3)nc3ccccc23)CC1,103,106,13,-28
O=C(NC1CC2CCC(C1)N2)c1ccccc1 (configuration not stated),103,98,-6,0
